Hsc70 ATP site: small molecules displacing fluorescent ligand from Hsc70 – biochemical, fluorescence polarization, primary screen (AID 568); displacement, % at 20 µM; hits with a dose series show IC50 in µM; 83,000 tested, under 10 active; Hsc70 fluorescence polarization, probe displacement; higher % means a stronger effect; strong numbers were not always called active;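 active = displacement above 50% without optical interference and an IC50 on retest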;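 note: ATPase domain with a fluorescein-tagged ATP probe; 0% = vehicle and 100% = excess ADP; read after one hour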
MT1-MMP promoter: inhibitors of MT1-MMP promoter transcription, cell-based, luciferase reporter, luminescence (AID 618) | MT1-MMP promoter luciferase reporter cells, luminescence | calls from a first round at 10 µM; hits with a dose series show EC50 in µM | 0.62% of 87,000 active;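 active = over half of the reporter light lost at 10 µM or EC50 under 50 µM; inactive = the rest and hits that failed the dose series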;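 note: actives suppress MT1-MMP promoter-driven transcription so potencies describe inhibitors; HT1080 fibrosarcoma cells; overnight exposure; toxic or luciferase-blocking compounds were not removed from the actives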
WNV protease inh: inhibitors of West Nile virus NS2B-NS3 protease | P06935 | WNV NS2B-NS3 protease, fluorogenic substrate Ex360/Em465; hits give low values | z-score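 (tested at a level between 10 and 100 µM)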 | 0.18% of 65,000 active | AID 577;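 active = z-score at -3 or under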;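 note: score is relative to mean and spread of the compound wells of a plate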
Target sequence (P06935 1371-1501 limits assumed): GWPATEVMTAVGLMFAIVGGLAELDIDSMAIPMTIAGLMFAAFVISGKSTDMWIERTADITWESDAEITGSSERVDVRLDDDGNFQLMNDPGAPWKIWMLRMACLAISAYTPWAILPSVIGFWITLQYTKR
Target sequence (P06935 1502-1679 limits assumed): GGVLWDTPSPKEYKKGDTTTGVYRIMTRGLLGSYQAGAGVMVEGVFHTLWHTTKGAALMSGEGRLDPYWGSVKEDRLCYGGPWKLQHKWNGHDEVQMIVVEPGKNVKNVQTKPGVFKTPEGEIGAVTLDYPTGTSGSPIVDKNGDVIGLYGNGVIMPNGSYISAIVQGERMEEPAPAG
* marks the source's active call; other numbers are inactive results; i = inactive; nt = not tested or not shown.

SMILES	Hsc70 ATP site	MT1-MMP promoter	WNV protease inh
CCOc1ccc(CCNC(=O)c2cccnc2N2CCCC2)cc1OCC	5.4%	i	-0.3
O=C(CSc1nnc(-c2cccnc2)n1Cc1ccco1)N1CCc2ccccc21	-2.7%	i	0.11
O=C(NCCCN1CCN(Cc2ccccc2)CC1)C1CCN(c2nnc(-n3cccc3)s2)CC1	-1.6%	i	-0.66
COC(=O)c1ccc(CN(c2ccccc2OC)S(=O)(=O)c2cccs2)o1	-5.1%	i	0.87
CCCSc1nnc(NC(=O)c2sc3nc(-c4cccs4)ccc3c2N)s1	-34%	i	-0.29
CCNc1nc(NC(C)(C)C)nc(N(CC)n2cnnc2)n1	-1.8%	i	-0.71
COc1cccc2c(=O)n(CC(=O)NC3CCCCC3)ccc12	-0.6%	i	-0.48
Oc1c(C(Nc2ccccn2)c2ccccn2)ccc2cccnc12 (stereo unspecified)	7.6%	i	1.4
O=C1CC(c2cccc(Cl)c2)CC(O)=C1C=NCCCO (stereo unspecified)	4.7%	i	-0.73
CCCCSc1ncc(C(=O)OCC)c(N)n1	4.6%	i	nt

The listing continues:
SMILES	Hsc70 ATP site	MT1-MMP promoter	WNV protease inh
CS(=O)(=O)Nc1ccc(C(=O)NCCSC2CCCCC2)cc1	1.7%	i	nt
CC(=C1C(=O)c2ccccc2C1=O)N1CCN(c2ccccn2)CC1	6.2%	i	-0.45
CC(NC(=O)C1CCCCC1)c1ccc2c(c1)OCCO2 (stereo unspecified)	-3.8%	i	0.33
COc1ccc(CNC(=O)CN2CCC(C(=O)c3ccc(OC)cc3)CC2)cc1	2.1%	i	-0.18
O=C(CC1C(=O)NCCN1C(=O)c1ccc(F)cc1)OCc1ccccc1 (stereo unspecified)	8.3%	i	1.8
COc1ccc(CCNS(=O)(=O)c2cccs2)cc1	-0.7%	i	0.19
CC1=CC(C)(C)N2C(=O)C3(C(C#N)=C(N)Oc4cc(O)ccc43)c3c(C)c(C)cc1c32 (stereo unspecified)	1.6%	i	nt
CCOc1cc(-c2ccc3c(c2)OCO3)cc(=O)c2c(C)oc(C)c12	-3.2%	i	-1.1
COC(=O)c1c(C#N)c(N)nc2c1CCCC2	4.9%	i	1.8
O=c1cc(O)c(-c2cccc(Cl)c2)c(Cl)[nH]1	2.2%	i	nt

Going on with the list.
SMILES	Hsc70 ATP site	MT1-MMP promoter	WNV protease inh
CC(C)CCOCC(=O)Oc1ccccc1C(=O)O	-0.3%	i	0.93
O=C1NC(=O)[C@@H]2C3c4ccccc4C=CN3[C@H](C(=O)c3cccs3)[C@H]12 (stereo partly specified)	48%	i	0.43
CCOc1ccccc1-c1nc(SCC(=O)O)n[nH]1	0.2%	i	1.7
Cc1cc2c(c(=O)o1)C(CC(C)C)C(C#N)=C(N)O2 (stereo unspecified)	1.4%	i	-0.21
Cc1cc(C)cc(-n2c(O)c(C=NC3CCS(=O)(=O)C3)c3ccccc3c2=O)c1 (stereo unspecified)	0.8%	i	nt
CCOC(=O)C1CCN(c2c(N3CCCC(C(=O)OCC)C3)c(=O)c2=O)CC1 (stereo unspecified)	-1.0%	i	0.66
CCC1(C)Cc2c(sc3[nH]c(=O)[nH]c(=O)c23)CS1 (stereo unspecified)	4.1%	i	-0.68
c1ccc(N2CCN(c3nc(-c4ccccn4)nc4ccccc34)CC2)cc1	1.6%	i	-0.11
CS(=O)(=O)N(CC(=O)Nc1ccc2c(c1)OCCO2)Cc1ccccc1	2.2%	i	-0.67
O=C1c2ccccc2C(=O)N1Cc1nc2ccccc2c(=O)n1CCCN1CCOCC1	-0.5%	i	0.78

Next entries follow.
SMILES	Hsc70 ATP site	MT1-MMP promoter	WNV protease inh
c1ccc2cc(-c3cc4ccccn4c3)ccc2c1	2.2%	i	nt
O=C(Cn1cccc1)N1CCc2ccccc21	-8.1%	i	0.44
CCC(C)(C)NC(=O)CN(Cc1cccs1)C(=O)CNS(=O)(=O)c1ccc(C)cc1	5.0%	i	nt
Cc1ncoc1C(=O)Nc1ccccc1C(N)=O	-8.3%	i	0.04
CCCc1nnc(NC(=O)CSc2ncn[nH]2)s1	4.1%	i	1.6
CC(C)(C)NC(=O)C1CC(=O)OC12CCCCC2 (stereo unspecified)	-2.8%	i	-1
Cc1cc(C)cc(OCC(=O)OCC(=O)c2c(N)n(C)c(=O)n(C)c2=O)c1	-0.4%	i	nt
c1csc(-c2nn3c(-c4ccncc4)nnc3s2)c1	-5.8%	i	-0.15
CCCCN(Cc1cc2ccccc2[nH]c1=O)C(=O)c1ccccn1	7.0%	i	nt
COc1ccc(Cl)cc1S(=O)(=O)Nc1cccc(C(=O)O)c1	-0.6%	i	-1.5

A draw from above in order of formula weight, rising.
SMILES	Hsc70 ATP site	MT1-MMP promoter	WNV protease inh
Cc1ncoc1C(=O)Nc1ccccc1C(N)=O	-8.3%	i	0.04
CCCCSc1ncc(C(=O)OCC)c(N)n1	4.6%	i	nt
COc1ccc(Cl)cc1S(=O)(=O)Nc1cccc(C(=O)O)c1	-0.6%	i	-1.5
O=C1c2ccccc2C(=O)N1Cc1nc2ccccc2c(=O)n1CCCN1CCOCC1	-0.5%	i	0.78

(further entries)
SMILES	Hsc70 ATP site	MT1-MMP promoter	WNV protease inh
CC(=O)N(c1ccc(N(C(C)=O)S(=O)(=O)c2cccs2)cc1)S(=O)(=O)c1cccs1	4.4%	i	1.1
Cc1ccc(-c2nnc(SCC#CCOC(=O)c3ccco3)o2)cc1	6.9%	i	nt
N#CC1=C(SCc2ccccc2)NC2=C(C(=O)CCC2)C1c1ccc2c(c1)OCO2 (stereo unspecified)	-1.4%	i	-0.12
CCC(C)(CC(=O)N(C)CCC#N)c1ccccc1 (stereo unspecified)	2.3%	i	nt
Cc1ccc(-c2nnn(CC(=O)N(CC(=O)NCC3CCCO3)c3ccccc3)n2)o1 (stereo unspecified)	-5.0%	i	-0.32
COc1ccc(CCNC(=O)CNCC2CCCO2)cc1OC (stereo unspecified)	0.3%	i	1.2
Cc1cc(C)c2[nH]c(=O)c(C(c3nnnn3CC3CCCO3)N3CCCC(C)C3)cc2c1 (stereo unspecified)	-2.1%	i	0.02
COc1cccc(N2CCN(Cc3cccnc3)CC2)c1	2.7%	i	0.86
CC(C)C(CO)NC(=O)CC(=O)NC(CO)C(C)C (stereo unspecified)	4.7%	i	0.2
CC(C)Oc1ccc(C(=O)N(Cc2ccco2)C2CCS(=O)(=O)C2)cc1 (stereo unspecified)	-0.8%	i	1.3

Compound profiles, from the list above. Screens in order: Hsc70 ATP site, MT1-MMP promoter, WNV protease inh
`CCC(C)(CC(=O)N(C)CCC#N)c1ccccc1` (stereo unspecified) reads 2.3%, i, nt
`O=C1CC(c2cccc(Cl)c2)CC(O)=C1C=NCCCO` (stereo unspecified) reads 4.7%, i, -0.73

Continued.
SMILES	Hsc70 ATP site	MT1-MMP promoter	WNV protease inh
COCCNC(=O)c1ccc(Cl)c(Cl)c1	-0.1%	i	-0.55
CCOC(=O)c1[nH]c(C)c(CN(Cc2ccco2)C(=O)C(F)(F)F)c1C	-4.9%	i	-1.8
C=CCNc1nc(-c2cccc(OC)c2O)nc2ccccc12	3.2%	i	0.12
CN1CCCC1CCNS(=O)(=O)c1ccc(Br)cc1 (stereo unspecified)	0.3%	i	nt
O=C(CN(CCO)c1ccccc1)NC12CC3CC(CC(C3)C1)C2	0.2%	i	0.11
CCOc1ccc(C/C(N)=N/n2cnnc2)cc1	-0.5%	i	nt
CCOC(=O)c1c(NC(=O)Cn2nnc(-c3ccc(Cl)cc3)n2)sc(CC)c1C	-0.4%	i	nt
CCOc1ccccc1NC(=O)c1cnc2n(c1=O)CCS2	4.7%	i	1.6
[N-]=[N+]=CC(=O)c1ccnc(C(=O)C=[N+]=[N-])c1	-4.5%	i	-1.2
CCn1cc(C(=O)NCCCN2CCC(C)CC2)c2cc(OC)c(OC)cc2c1=O	4.9%	i	-0.56

Some entries already given, limited to MT1-MMP promoter:
mol | MT1-MMP promoter
Cc1cc(C)cc(OCC(=O)OCC(=O)c2c(N)n(C)c(=O)n(C)c2=O)c1 | i
CCOc1ccccc1NC(=O)c1cnc2n(c1=O)CCS2 | i

More records.
SMILES	Hsc70 ATP site	MT1-MMP promoter	WNV protease inh
CCOC(=O)CSc1nnc2cc(C)c3ccccc3n12	0.4%	i	nt
O=C(CN(CC1CCCO1)C(=O)Cn1nnc(-c2ccc(F)cc2)n1)NC1CCCCC1 (stereo unspecified)	-2.3%	i	-0.35
O=C(Cn1cc2c(n1)CCCC2)NC1CCN(Cc2ccccc2)CC1	1.2%	i	0.91
COc1ccc(Br)cc1S(=O)(=O)N1CCN=C1C	-0.6%	i	0.07
CCCS(=O)(=O)N1CCC(C(=O)NCCc2ccc(C)cc2)CC1	-2.5%	i	1
Nc1nc(-c2cccnc2)nc(N2CCCCC2)n1	1.3%	i	-1
COc1cc2c(cc1OC)CN(C(=O)CCCOc1ccc(Cl)cc1Cl)CC2	3.5%	i	nt
C#CCOc1ccc2c(C)cc(=O)oc2c1	1.1%	i	0.22
O=C(NCc1ccco1)C1(S(=O)(=O)c2ccc(Cl)cc2)CC1	0.5%	i	0.79
Cc1cccc(CSc2nnnn2-c2ccccc2)c1	-1.6%	i	nt

Following part.
SMILES	Hsc70 ATP site	MT1-MMP promoter	WNV protease inh
COc1cc(C(=O)Nc2oc(-c3ccccc3)c(-c3ccccc3)c2C#N)cc(OC)c1OC	1.1%	i	1.5
Cc1ccc(S(=O)(=O)n2nc(OC(=O)C(C)(C)C)cc2N)cc1	-3.0%	i	0.18
CCC(C)(C)n1nnnc1C(c1cc2ccc(OC)cc2[nH]c1=O)N1CCc2ccccc2C1 (stereo unspecified)	-2.6%	i	-0.59
Cc1c[nH]c2cccc(OCC(O)CNC(C)(C)C)c12 (stereo unspecified)	-3.5%	i	-0.1
CCOC(=O)CCSc1nc(C)c2ccccc2n1	6.0%	i	-2
CCn1c(=O)c2cc(S(=O)(=O)NC3CCCCC3)ccc2n(CC)c1=O	1.2%	i	-1.1
CCOC(=O)c1cc2oc(C(c3nnnn3C3CCCCC3)N3CCOCC3)cc2[nH]1 (stereo unspecified)	-3.1%	i	-0.31
Cc1sc2nc(-c3cccs3)nc(N3CCCN(C)CC3)c2c1C	-5.8%	i	-0.19
CN(C)CCn1c(NC(=O)c2ccc(Cl)cc2)nc2ccccc21	2.3%	i	nt
c1ccc(OCCCc2nc(-c3cccnc3)no2)cc1	-2.0%	i	0.98

(listing goes on)
SMILES	Hsc70 ATP site	MT1-MMP promoter	WNV protease inh
CCC(C)c1ccc(NC(=O)C2CCCN(c3ncccn3)C2)cc1 (stereo unspecified)	-8.5%	i	0.45
Cc1cc(NC(=O)c2cccc(F)c2)ncc1NC(=O)c1ccco1	-0.8%	i	0.22
CN(C)CCNc1ncnc2c1cnn2-c1ccc(Cl)cc1	-2.0%	i	0.91
Nn1c(Cc2cccc3ccccc23)nnc1SCC(=O)N1CC(=O)Nc2ccccc21	2.4%	i	nt
CCn1c(SCC(=O)Nc2ccc(NC(C)=O)cc2)nnc1C1CC1	-7.1%	i	-0.96
COc1cc(C(=O)Nc2cccc3ncccc23)cc(OC)c1OC	-0.9%	i	-1.6
O=C(Nc1ccccc1O)c1ccccc1O	-5.6%	i	-0.88
Cc1ccc(NCc2nnc(SCC(=O)Nc3ccccc3)n2CC2CCCO2)c(C)c1 (stereo unspecified)	2.8%	i	0.27
O=C(NCc1ccco1)c1nc2c(nnn2Cc2cccc(Cl)c2)c(=O)[nH]1	2.2%	i	nt
CCC(=O)Nc1nnc(SCc2ccc(F)cc2)s1	8.6%	i	nt

Next section:
SMILES	Hsc70 ATP site	MT1-MMP promoter	WNV protease inh
CCOC(=O)c1c(C)[nH]c(C)c1C(=O)CSc1nnc(-c2ccc(OC(F)F)cc2)o1	7.4%	i	nt
O=C1CC(c2ccc3c(c2)OCO3)C2=C(CCCC2=O)N1 (stereo unspecified)	-2.6%	i	-0.55
CCOc1ccc(S(=O)(=O)Nc2cccc(C(=O)N3CCN(c4ccc(OC)cc4)CC3)c2)cc1	0.2%	i	-0.76
O=C(NC1CCCCC1)C(c1cccs1)N(C(=O)c1ccco1)c1ccc2c(c1)OCCO2 (stereo unspecified)	-1.2%	i	nt
COc1ccc(S(=O)(=O)NCC(=O)N(CC(=O)NCC2CCCO2)c2ccccc2C)cc1 (stereo unspecified)	-2.9%	i	0.21
CCCc1cc(N2CCN(C(=O)c3ccco3)CC2)n2c(nc3ccccc32)c1C#N	-2.9%	i	nt
N#Cc1ccccc1S(=O)(=O)N1CCN(c2ccc(S(=O)(=O)N3CCOCC3)cn2)CC1	-4.3%	i	-0.5
C=CCn1c(-c2ccc(OC)cc2)nc2ccccc21	-1.4%	i	0.28
CN(C(=O)CSc1nnc2ccccn12)C1CCS(=O)(=O)C1 (stereo unspecified)	2.7%	i	nt
CC(=O)Oc1oc(-c2ccccc2)nc1C=Nc1ccccc1	-4.9%	i	nt

Later entries:
SMILES	Hsc70 ATP site	MT1-MMP promoter	WNV protease inh
Cc1oc(-c2cccc(Cl)c2)nc1CN1CCC(C(=O)NCc2cccnc2)CC1	-1.3%	i	1.7
FC(F)(F)c1cc(-c2ccc3c(c2)OCO3)nc(NCc2ccco2)n1	1.0%	i	1.9
Cc1ccc(S(=O)(=O)NCCSc2nnnn2C)cc1	2.9%	i	0.46
CSCCOC(=O)C1=C(C)Nc2ccc(C)cc2S1	-1.1%	i	nt
COC(=O)CSC1=C(C#N)C(c2ccc3c(c2)OCO3)C2=C(CCCC2=O)N1 (stereo unspecified)	0.8%	i	nt

Screens: PubChem BioAssay, several laboratories

An unsorted share of the library; any-hit rate near 0.77%.
